Tg IFNy HTS = blocks Toxoplasma gondii growth in the presence of IFN-gamma; activity change, negative = inhibition, %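 (about 20 µM by stock and volumes)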; hit rate 3.8% among 69,000; Toxoplasma gondii growth in IFN-gamma-treated host cells; active compounds read low; reference of the scale not given here;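 active = below -70%; inconclusive = fit judged invalid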;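 note: host cells are HeLa cells infected with Toxoplasma gondii; parasite growth read as luciferase light; one replicate is shown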
Starred values were filed as active, the others as inactive; i = inactive; ? = inconclusive. This is a subset; rates above refer to the full screens.

SMILES	Tg IFNy HTS
O[C@@]1(c2ccccc2)C2C3CC4C5C3C1C5C(F)(F)C42 (stereo not given in full)	22.8
Cc1ccc(NC(=O)Cn2c(=O)ccc3cc(S(=O)(=O)N4CCC(C)CC4)ccc32)c(C)c1	12.7
O=C(c1cn[nH]n1)N1CCCC(c2nnc3ccccn23)C1 (stereo not given)	7.9
N#C[C@H]1[C@@H](c2ccccc2C2=CCCCC2)[C@@H](CO)N1S(=O)(=O)c1ccccc1	-5.3
CC1(C)C(=O)C=C[C@@]2(C)C1CC(=O)[C@]1(C)C2CC[C@@]2(C)[C@H](c3ccoc3)OC(=O)[C@H]3O[C@]321 (stereo not given in full)	25.2
C=CCN(CC#Cc1ccccc1)C(=O)c1cc(=O)n(C)c(=O)n1C	-38.3
COCC1CCC2(CCN(C(=O)c3cccs3)CC2)N1CC1CC1 (stereo not given)	3.3
CCC(=O)NCc1ccccc1-c1cc(F)c2c(c1)CC(CN)O2 (stereo not given)	-4.1
Cc1ncc2c(c1CNC(=O)/C=C/c1ccccc1)CCN(C(=O)c1ccc3nccnc3c1)C2	-46.5
COc1ccc(C2CCN(C(=O)Cc3ccc4c(c3)OCO4)CC2)cc1	-0.9
COc1ccccc1NC(=O)N1[C@H](CO)[C@@H](c2ccccc2)[C@@H]1C#N	9.5
Cc1cccc(NC(=O)CNC(C)c2ccc(Cl)cc2)c1C (stereo not given)	5.2
Cc1ccsc1[C@@H]1CCN(Cc2cccc3c2OCO3)C[C@H]1O	-3.3
CNC(=O)c1ccc(CNC(=O)c2cccc(-c3ccccc3OC)c2)o1	-3.7
c1cncc(CN(Cc2ccc3c(c2)OCO3)Cc2cccc3nonc23)c1	-7.8

Exported with bars between the fields: part of the list above.
mol | Tg IFNy HTS
COCC1CCC2(CCN(C(=O)c3cccs3)CC2)N1CC1CC1 (stereo not given) | 3.3
O[C@@]1(c2ccccc2)C2C3CC4C5C3C1C5C(F)(F)C42 (stereo not given in full) | 22.8

Following part.
SMILES	Tg IFNy HTS
CNC(=O)Cn1cc(-c2cccc3ccnn23)cn1	3.4
c1ccc(NCc2cn3c(n2)CN(c2ncccn2)CC3)nc1	-49.8
CC1CC(N(C(=O)c2ccc3c(c2)OCO3)c2ccccc2)c2ccccc2N1 (stereo not given)	-96.2*
Cc1ccc(-c2nc3c(s2)CN(C(=O)Nc2cccc(C)c2)CC3)cc1	-31.1
O=C(Nc1ccc(Cl)cc1)N1CCc2ccccc2C1	55.1
CN1CC2(CCCN(C(=O)c3cc(=O)n(-c4ccccc4)[nH]3)C2)OC1=O (stereo not given)	-10.1
COc1ccccc1C1(NC(=O)CCn2ccnc2-c2ccccc2)CCCC1	-4.5
CCCNC(=O)N1C[C@@H]2[C@H](c3ccccc31)[C@H](CO)N2Cc1cccc(OC)c1	2.4
Cc1nc(NCC2CC2)nc2c1COCC21CCN(c2ncccn2)C1 (stereo not given)	-5.0
COC(=O)c1ccc(NC(=O)Nc2ccc(-c3nc(-c4cc(C)ccc4C)co3)cc2)cc1	4.2
COc1ccc([C@H]2C3CCCCC3[C@@H]2NCc2cnc(C)nc2)cc1 (stereo not given in full)	34.7
CCn1c(-c2ccc(O)c(OC)c2)n[nH]c1=O	-9.2
Cc1cccc(CN2C(=O)CCC23CCN(C(=O)NC2CC2)CC3)c1	-2.9
COc1ccc(-n2cc(CNC(C)c3csc(C)n3)c(-c3ccccc3Cl)n2)cc1 (stereo not given)	2.1
CCOCCN1CC[C@H]2OCC[C@@H](C(=O)N3CCCO3)[C@@H]2C1	7.0

Single entries from the results shown.
CCn1c(-c2ccc(O)c(OC)c2)n[nH]c1=O in Tg IFNy HTS has -9.2
COc1ccc([C@H]2C3CCCCC3[C@@H]2NCc2cnc(C)nc2)cc1 (stereo not given in full) in Tg IFNy HTS has 34.7
CCOCCN1CC[C@H]2OCC[C@@H](C(=O)N3CCCO3)[C@@H]2C1 in Tg IFNy HTS has 7.0

The results go on:
SMILES	Tg IFNy HTS
O=C(C[C@H]1CC[C@@H]2[C@H](COC[C@H](O)CN2C(=O)c2ccncc2)O1)NCc1cc(F)cc(F)c1	1.2
Cc1ccc(-c2nc(CSc3nc4c(c(=O)[nH]3)CN(C(C)C)CC4)c(C)o2)cc1	-7.1
O=C1N[C@@H](c2ccccc2)COCn2nncc2CC[C@@H]1Cc1ccccc1	6.1
NC(=O)CSc1nnc(-c2cccnc2)o1	-59.9
COC(=O)C[C@@H]1CC[C@H]2[C@@H](COC[C@@H](O)CN2S(=O)(=O)c2cn(C)cn2)O1	-48.3
Cc1[nH]c2ccccc2c1C(c1ccc(Br)o1)c1c(C)[nH]c2ccccc12	8.0
N#C[C@H]1[C@@H](c2ccc(/C=C/c3ccccc3)cc2)[C@@H](CO)N1C(=O)Cc1ccccn1	15.2
COc1cc(CNC(c2ccc(C)cc2)c2cccnc2)cc2c1OCCO2 (stereo not given)	-18.8
Cc1oc(C(C)C)cc1C(=O)NCCC1CCCN(C)C1 (stereo not given)	-6.7
O=C(COc1ccccc1)N1CCC2(CC1)Nc1ccc(Cl)cc1-n1cccc12	-84.1*
Cc1cnc(-c2ccc(C(C)N3CCOCC3)cc2)c(Cl)c1 (stereo not given)	18.1
Cc1csc(NC(=O)c2c(O)c3ccccc3[nH]c2=O)n1	54.3
CCOc1cccc(-c2noc(-c3c(O)c4cc(F)ccc4n(C)c3=O)n2)c1	30.0
COc1ccccc1C1=NOC(C)(C(=O)N(C)Cc2ccccc2N2CCOCC2)C1 (stereo not given)	-63.6
CN1C(=O)c2cc(NC(=O)c3ccc(F)c(F)c3)ccc2OC[C@H]2O[C@H](CC(=O)N3CCCCC3)CC[C@H]21	10.4

Some of the entries so far, field by field.
Cc1cnc(-c2ccc(C(C)N3CCOCC3)cc2)c(Cl)c1 (stereo not given)
- Tg IFNy HTS: 18.1
Cc1csc(NC(=O)c2c(O)c3ccccc3[nH]c2=O)n1
- Tg IFNy HTS: 54.3
CCOc1cccc(-c2noc(-c3c(O)c4cc(F)ccc4n(C)c3=O)n2)c1
- Tg IFNy HTS: 30.0
COc1ccccc1C1=NOC(C)(C(=O)N(C)Cc2ccccc2N2CCOCC2)C1 (stereo not given)
- Tg IFNy HTS: -63.6

(cont.)
SMILES	Tg IFNy HTS
Cc1nc(C(C)C)sc1C(=O)N(C)Cc1nncn1C(C)C	16.7
CS(=O)(=O)N1CCCc2ccccc2C1c1ccnc(Oc2cccnc2)c1 (stereo not given)	-14.3
CO[C@H]1CN(C)C(=O)c2cc(NC(=O)NC(C)C)ccc2OC[C@H](C)N(C(=O)CN(C)C)C[C@@H]1C	-25.8
CNC(=O)c1cc(=O)n(CC(=O)Nc2ccc(C)c(C)c2)c2ccccc12	9.6
CC(=O)N1CC2(C1)[C@H](c1ccccc1)[C@@H](CO)N2Cc1ccccc1	54.9
Cc1cnc(CNC(=O)[C@H]2CO[C@@H]3CCNC[C@@H]3C2)cn1	5.1
CN1CCCCN2[C@H](CO)[C@@H](c3ccc(-c4ccc(F)cc4)cc3)[C@H]2C1	11.6
CC(C)(C)c1cc(C(F)(F)F)nc(N)n1	3.7
N#Cc1cc2c(c3c1CCc1ccccc1-3)-c1ccccc1CC2	-80.0*
CC(C)[C@H]1CN(Cc2ccccc2F)CCN1C(=O)c1cscn1	15.8
CCOc1ccccc1NC(=O)N1CCC2(CC1)NC(=O)c1ccc(F)cc1N2C	13.9
CC(=O)N1CC2(CCN(C(=O)C3CCCCC3)CC2)CC1C(=O)O (stereo not given)	0.7
COCCN1CCOCC2(C1)CN(Cc1nc[nH]c1C)CCO2 (stereo not given)	0.6
COCCNC(=O)[C@H]1C[C@H]2CCN(Cc3csc(C)n3)C[C@H]2O1	-0.2
Cc1cccc(CNC(=O)C2(Cc3cccc(C4CCCN(C)C4)c3)CCOCC2)n1 (stereo not given)	2.3
CCOC(=O)C1(CC2CC(c3ccc(F)cc3)=NO2)CCCN(C(=O)c2ccccc2)C1 (stereo not given)	-8.7
Cc1oncc1C(=O)NCc1cc(=O)n2c(n1)CN(C(C)C)CCC2	-24.6
CCNC(=O)c1c2c(NC(C)C)ncnc2n2ccccc12	-3.0
Oc1cccc(-c2nccn2C2CCCC2)c1	1.6
CCn1nc(C(=O)N2CCN(c3ccccc3)CC2)c2c1CCN(C(=O)C(C)Oc1ccccc1)C2 (stereo not given)	-4.1
CN(C)CCOCc1cncc2c1CCN(C(=O)c1ccc[nH]1)C2	-49.9
CCOc1ccc(-c2nc(Cn3nnc(C(=O)Nc4cc(Cl)ccc4C)c3C)c(C)o2)cc1	27.5
CCc1nc2c(N3C[C@H]4C[C@H](O)[C@@H](O)C[C@H]4C3)ncnc2o1	-0.3
COc1ccccc1CNC(=O)C[C@@H]1CC[C@@H]2[C@@H](COc3ccc(NC(C)=O)cc3C(=O)N2C)O1	15.0
Cc1nc(CN2CCOCC3(CNCCO3)C2)cs1 (stereo not given)	-89.8*
Cc1cc(N2CC[C@@H](N3CCOCC3)[C@H](O)C2)c2cc3c(cc2n1)OCO3	-53.5
CCOC(=O)C(O)(NC(=O)NC(C)=O)C(F)(F)F (stereo not given)	29.6
CO[C@H](C(=O)N(C)C[C@@H]1OCc2ccccc2-c2ccccc2C(=O)N([C@@H](C)CO)C[C@@H]1C)c1ccccc1	5.0
CCc1ccccc1NC(=O)c1cncc(NS(=O)(=O)c2ccc(Br)cc2)c1	-0.3
CCn1c(=O)c(-c2nc(-c3cccc(OC)c3)no2)c(O)c2ccc(F)cc21	93.0
CCN(CC)Cc1cnc2c(C(=O)NCc3nccs3)cnn2c1	-0.8
Cn1cnc(S(=O)(=O)N2C[C@@H](O)COC[C@@H]3O[C@H](CC(=O)NCc4cccc(F)c4)CC[C@H]32)c1	12.9
C[C@@H]1CN([C@@H](C)CO)C(=O)CCCn2cc(nn2)CO[C@H]1CN(C)C(=O)NC1CCCCC1	75.4
CC(C)CCn1c(=O)n(CCn2cccc2)c2cc(C(=O)O)cnc21	0.5
COc1cc(CCC(C)NC(=O)c2ccc(C)cc2)ccc1OC(=O)c1ccc(C)cc1 (stereo not given)	-12.5
CC(C)n1ccnc1-c1cc(NCc2ccccn2)nc2[nH]ccc12	-19.3
COc1ccc(-c2ccc(C(=O)N(C)CC3(C)CCN(C)C3)o2)cc1 (stereo not given)	-28.3
COc1cccc(S(=O)(=O)N2C[C@@H](O)COC[C@@H]3O[C@@H](CC(=O)NCCCN4CCOCC4)CC[C@H]32)c1	-8.9
Cc1nccc(NCc2cncc3c2CCN(S(C)(=O)=O)C3)n1	106.2
O=C(CC1CC1)NC[C@H]1N[C@H](CO)[C@@H]1c1ccc(-c2ccc(F)cc2)cc1	8.4
c1ccc(COCC2NCCc3[nH]cnc32)cc1 (stereo not given)	15.3
c1cncc(-c2nc3c(c(NCCC4CCOC4)n2)CCNC3)c1 (stereo not given)	-9.1
NC(=O)c1[nH]cnc1O	7.3
O=C(c1cc(-c2ccccc2)on1)N1C[C@H](O)[C@@H](N2CCOCC2)C1	4.1
Cc1ccc(-c2cc(NC3CCCC3)nc3[nH]ccc23)c(N)n1	-3.0
O=C(CSC1=NC(=O)C(Cc2ccccc2)C(=O)N1)Nc1cccc2ccccc12 (stereo not given)	-3.7
COc1ccc(NC(=O)N(C)C[C@@H]2OCCCC[C@H](C)Oc3ccc(NC(=O)c4ccncc4)cc3C(=O)N([C@H](C)CO)C[C@H]2C)cc1	i
Cc1ccc(NC(=O)C(CC(C)C)NS(=O)(=O)c2ccc3[nH]c(=O)ccc3c2)cc1Cl (stereo not given)	66.8
O=C(Nc1ccc(-c2csc(-c3ccccc3)n2)cc1)c1cccs1	?
CCc1cnc(N2CCC3(CC2)CC(c2ccccc2)C(=O)N3)nc1 (stereo not given)	-10.2
CC(NC(=O)c1ccc(Cn2cccn2)cc1)c1ccc2c(c1)CCC2 (stereo not given)	49.2
CC(C)C(=O)c1ccc2nnc3ncn(CC4CCCO4)c3c2c1 (stereo not given)	2.9
CN(C)CCNC(=O)C1CC2CN(Cc3cnn(C)c3)CC1O2 (stereo not given)	0.1
Cc1nc(C)n(CCNC(=O)c2cc3ccccc3c(=O)s2)n1	21.4
COCC(=O)N1CCCN(Cc2cccn2-c2ccc(Cl)cn2)CC1	-2.8
O=C(NCCCc1ccccn1)c1ccc(-c2cccc3ccnn23)nc1	-44.8
COc1ccc(C)cc1NC(=O)Cn1ncc2c(N3CCCCCC3)ncnc21	-90.8*
O=C(CC1COCCN1)NCc1csc2c1CCCC2 (stereo not given)	-1.9
Cc1ccc2nc(NC(=O)C(C)(C)C)[nH]c(=O)c2c1	239.1
Cc1ccc(NC(=O)CN2C(=O)CCc3cc(S(=O)(=O)N4CCCCC4)ccc32)cc1C	3.0

Continued.
SMILES	Tg IFNy HTS
CNC[C@@H]1OCc2cnnn2CCCC(=O)N([C@@H](C)CO)C[C@@H]1C	12.7
COc1ccc(-c2nnc(-c3nc(NCCc4ccc(OC)c(OC)c4)c4ccccc4n3)o2)cc1	-12.7
COc1ccc(-c2nc(CCNC(=O)c3cccc4ccccc34)cs2)cc1OC	i
Cc1onc(-c2ccccc2Cl)c1-c1nc(CC2CCN(C)CC2)no1	-7.3
O[C@@H]1CN(c2nc(-c3ccccc3)no2)CC[C@H]1c1ccc2c(c1)OCO2	112.8
Cc1cc(N2C(=O)C3C4C=CC(C4)C3C2=O)no1 (stereo not given)	-6.4
Cn1ncc(SCC(=O)O)c(Cl)c1=O	73.1
COc1ccc(-c2nc(C)c(-c3ccc(SCc4ccc(C)cc4)nn3)s2)cc1	1.2

From PubChem BioAssay
